# NPYLR7 agonist: mosquito NPYLR7 agonism | HEK293T NPYLR7/Galpha15, GCaMP6s calcium fluorescence | activation, % at 10 µM | 270,000 compounds, 0.15% hits; in the data active means activation above about 40%;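 further: 0% = vehicle and 100% = reference agonist at the receptor; some compounds past the cut are filed as inactive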
# NPYLR7 agonist max-min: further read-out of NPYLR7 agonist, marked with its call; activation, %; measured here: Max-Min RFU normalised activation; some inactives read as strong as hits;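 span of the calcium signal over five minutes; 0% = vehicle and 100% = native peptide agonist; compound fluorescence can raise it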
# * hit, by the source's call; & = joins results of further samples.
Compound,NPYLR7 agonist,NPYLR7 agonist max-min
CCn1c(C2CCCN(Cc3ccc(S(C)(=O)=O)cc3)C2)nn(C)c1=O (stereo not drawn),4.1,4.9
CNC(=O)c1c(NC(=O)c2ccccc2-c2ncn[nH]2)sc2c1CCCC2,1.2,-1.9
O=C(O)[C@H]1C[C@]2(CCCCNC2=O)N(C(=O)c2ccc3c(c2)OCCCO3)[C@H]1c1ccccc1,5.6,13.4
NC(Cc1ccc(Cl)cc1)c1csc(Nc2nccc(C(F)(F)F)n2)n1 (stereo not drawn),-4.3,-7.5
Cc1ccc(CN(CCN2CCOCC2)Cc2ccc(C(C)(C)O)o2)cc1,7.8,5.7
O=S(O)OC1CS(=O)(=O)CC1c1ccccc1 (stereo not drawn),7.4,2.6
CCCCN(CC(=O)N1c2ccccc2-n2cccc2C1c1cccc(C)c1)C(=O)Nc1ccccc1F (stereo not drawn),10.8,26.2
CCC(CC)C(=O)N(CCOC)Cc1cc(N)ccc1N(C)C,4.2,4.7
O=C(NCc1cccs1)c1cc(C2CC2)on1,-0.8,-0.8
Cc1ccccc1CNS(=O)(=O)CC1CCCCC1,-1.0,-5.1
Cc1ccc2ncccc2c1CNCC1(O)CCCN(CC2CCC2)C1=O (stereo not drawn),2.9,1.7
COc1ccc(CCC(=O)Nc2cc(Cl)ccc2F)cc1,-10.4,-10.1
CCC(C)C(C(=O)NCc1n[nH]c(C)n1)c1ccccc1 (stereo not drawn),-1.1,-2.3
CC(=O)N1CN(CCCn2ccnc2)Cc2c1sc1c2CCCC1,4.9,17.6
CC(C)c1cccc(C(C)C)c1NC(=O)CN(C)S(=O)(=O)c1cccs1,-4.4,-3.9
CCOc1ccccc1CN1CCCn2cccc2C1c1ccc(F)cc1 (stereo not drawn),-7.0,-5.9
O=C(Nc1nncs1)c1c(O)c2c([nH]c1=O)CCCC2,4.8,1.9
CCCCCc1ccc(C(=O)Nc2ccc(N3CCC(C)CC3)c(C(=O)NC3CC3)c2)cc1,17.4,25.1
O=S(=O)(NCc1ccccc1)N1CCc2ccc(C(F)(F)F)cc2C1,-1.0,-1.0
Cc1ccc(C)c(NC(=O)C(=O)NCCN2CCOC(c3ccccc3)C2)c1 (stereo not drawn),-8.0,-11.0
Cc1ccc(Cc2nc(N3CCN(C(=O)COCc4ccccc4)CC3)c3c(-c4cccnc4)noc3n2)cc1,28.2,9.6
CCc1nnc(-c2cc3ccccc3n2Cc2cccc(C)c2)o1,-1.3,-2.6
CCCn1nccc1NC(=O)c1cc(=O)[nH]c2ccc(Cl)cc12,1.9&9.2,1.6&3.6
Cc1nc2c(=O)n(CC(=O)N(C)c3ccccc3)nc(-c3ccc(F)cc3)c2s1,2.0,-0.4
CCC(C(=O)N1CCC[C@@H]1C(=O)NCCNC(=O)c1ccccc1)c1ccccc1 (stereo partly drawn),4.5,10.9
O[C@@H]1CO[C@H]2[C@@H]1OC[C@@H]2O,4.2,-1.0
Cc1nc(SCCC(=O)NC23CC4CC(CC(C4)C2)C3)n(Cc2ccc(Cl)cc2)c1C,0.7,1.8
O=C(CCN1CCCC(Cc2cccnc2)C1)Nc1nnc(C2CC2)s1 (stereo not drawn),0.7,11.0
O=C(O)c1cc2ccccc2nc1N1CCCC1,-1.9,-4.3
CCSc1ncc(CN2CCCC3(CCN(C(=O)C(C)(C)C)C3)C2)cn1 (stereo not drawn),-0.2,-0.5
CC1Sc2ccccc2N(Cc2ccc(F)c(Cl)c2)C1=O (stereo not drawn),5.8,3.3
COc1cc(CN2CCCC(Nc3ccc4c(c3)OCCO4)C2)c(Cl)cc1O (stereo not drawn),6.2,4.8

# Laid out differently: entries from further up.
# Value order: NPYLR7 agonist | NPYLR7 agonist max-min
O=C(O)c1cc2ccccc2nc1N1CCCC1
  -1.9 | -4.3
CCSc1ncc(CN2CCCC3(CCN(C(=O)C(C)(C)C)C3)C2)cn1 (stereo not drawn)
  -0.2 | -0.5
CC1Sc2ccccc2N(Cc2ccc(F)c(Cl)c2)C1=O (stereo not drawn)
  5.8 | 3.3
COc1cc(CN2CCCC(Nc3ccc4c(c3)OCCO4)C2)c(Cl)cc1O (stereo not drawn)
  6.2 | 4.8

# Next section:
Compound,NPYLR7 agonist,NPYLR7 agonist max-min
CN(CC(=O)Nc1c(Cl)cccc1Cl)C(=O)CCN1C(=O)COc2ccccc21,-4.0,-6.5
CN(Cc1cnn(C)c1)C(=O)Nc1ccc(N2CCOCC2)c(F)c1,5.6,1.3
O=C(CSc1nc2ccccc2[nH]1)N/N=C\c1ccncc1,1.6,4.2
Cc1cc(C)n2nc(SCc3cc(=O)n4c(C)csc4n3)nc2n1,-1.8,-2.6
CCN(CC)C(=O)C1CCCN(C(=O)c2cccc(Br)c2)C1 (stereo not drawn),0.1,-2.1
O=C1OC(c2ccc(-c3ccccc3)cc2)=N/C1=C\C=C\c1ccccc1,-3.7,-9.0
O=C(CCCc1ccccc1)N1CCN(c2ncnc3c2nnn3Cc2ccccc2)CC1,-10.0,-15.8
CCOC(=O)N1CCC(N2CCCC(Nc3ccc4c(c3)OCO4)C2)CC1 (stereo not drawn),14.4,9.2
CC(C)CC(=O)N1CCC(C(=O)c2c(F)cc(F)cc2F)CC1,1.4,-0.8
Cc1cc(NC(=O)/C=C/c2ccccc2)n(-c2ncnc3c2cnn3-c2ccc(F)cc2)n1,1.8,1.6
CNc1ncccc1C(=O)N(CCOC)Cc1ccc(C)cc1,7.9,-0.4
CC(c1nc2ccccc2c(=O)[nH]1)N1CCCC1c1ccc2c(c1)OCCCO2 (stereo not drawn),15.5,14.1
COc1ccc(C(CC(=O)N2CCN(C/C=C/c3ccccc3)CC2)c2c[nH]c3ccccc23)cc1 (stereo not drawn),13.1,24.5
Cc1[nH]n(-c2ccccc2)c(=O)c1N=Nc1ccc(I)cc1,-4.4,-9.3
COc1ccc(C2CNCC2C(=O)NCc2cccnc2)c(OC)c1 (stereo not drawn),24.0,14.7
CC1(C(=O)NS(=O)(=O)c2cccc(OC(F)F)c2)CCN1C(=O)c1cccc(F)c1 (stereo not drawn),1.4,-0.4
O=C(Nc1nnc(-c2ccc(Br)cc2)s1)C1CCCN1C(=O)c1ccc(Cl)c([N+](=O)[O-])c1 (stereo not drawn),-3.5,0.1
COc1ccc(-c2cc(C(=O)NCCCN3CCCCC3C)n3nc(C(C)(C)C)cc3n2)cc1 (stereo not drawn),10.2,11.5
COC(=O)Cn1cc(S(=O)(=O)Nc2cc(C)ccc2F)cn1,1.1,-0.6
Cc1cccc(Cn2c(SCc3ccccc3)nc3c2c(=O)[nH]c(=O)n3C)c1,-1.2,-1.7
Cc1ccc(Cn2nnc3c(=O)n(Cc4ccc(F)cc4)cnc32)cc1,2.4,5.6
CN(C)CCN(Cc1ccccc1OS(=O)(=O)c1ccc(F)cc1)C(=O)c1cccc(F)c1,-1.8,3.4
CN(C)c1nc(N)nc(CN2CCSCC2CCO)n1 (stereo not drawn),6.2,9.5
O=C(CSc1nc2ccccc2[nH]1)N1CCCCCC1,-2.0,-9.5
CC1CCCN(C(=O)c2cccc(NC(=O)OC(C)(C)C)c2)CC1 (stereo not drawn),1.0,1.2
COCC(O)CN(CC(=O)N1CCc2sccc2C1COc1ccccc1OC)CC1CC1 (stereo not drawn),2.2,1.3
COCc1c(C)cc(C)c(/C=N\O)c1C,12.1,12.1
CCOC(=O)c1cnc(-c2ccc(OC)c(OC)c2)nc1NCCC1=CCCCC1,26.1,27.9
CCOC(=O)N1CCN(C(=O)CC(c2ccc(OC)cc2)c2c[nH]c3ccccc23)CC1 (stereo not drawn),9.2,12.6
O=C(c1sc2ccccc2c1Cl)n1cc(Cl)cn1,5.1,2.7
CCOc1ccccc1NC(=O)CSc1ccc2nnc(-c3ccc(OC)c(OC)c3)n2n1,14.1,11.5
Nc1ccc(S(=O)(=O)C(F)(F)F)cc1[N+](=O)[O-],1.8,2.7
O=C(NCCOCCO)Nc1c[nH]c2ccccc12,-0.2,-5.5
CC(C)C(=O)N1CCCC1(C)C(=O)Nc1ccc2cn[nH]c2c1 (stereo not drawn),3.7,0.5
CC1(C)O[C@@H]2C[C@@](OCc3ccccc3F)(C(=O)NCc3ccco3)CC(OCc3cccc(OC(F)(F)F)c3)[C@@H]2O1 (stereo partly drawn),5.2,12.4
O=S1(=O)N=C(SCc2ccccc2)Nc2ccccc21,10.9,6.3
COc1ccc(-c2nc3ccc(C)cn3c2NC(=O)c2ccc(F)cc2)cc1,-2.1,6.8
O=C(NNC(=O)C1CC1)c1nn(-c2ccccc2C(F)(F)F)cc1O,4.9,1.7
O=C1CCS(=O)(=O)c2ccc(Cl)cc21,4.6,4.7
COc1ccc2[nH]c(C(=O)N3CCc4nc5ccccc5c(C(=O)NCc5ccccc5)c4C3)cc2c1,0.0,8.8
CC(=O)Nc1cccc(-c2cc(C(F)(F)F)cc3[nH]cnc23)c1,4.8,3.6
CC(C)Cc1nc(CN(C)Cc2ccc3c(c2)OCCO3)no1,2.0,1.7
Cc1ccc(C(=O)N2CCC(n3nccc3NC(=O)Nc3ccccc3Cl)CC2)cc1C,3.2,0.7
COc1cc(OC)c(NC(=O)N2CC3CCCC32)cc1Cl (stereo not drawn),-23.6,-25.7
CC(C)c1cc(Br)c(NC(=O)N[C@H](Cc2ccccc2)C(=O)N2CCC(C(=O)N3CCOCC3)CC2)c(Br)c1,2.3,-0.2
COC(=O)CN1C(=O)N(CCc2ccccc2)C2(CCN(Cc3ccncc3)CC2)C1=O,-9.8,-11.1
CNC(=O)[C@@]1(OCc2ccc(F)cc2)CC(OCc2cccc(F)c2F)[C@@H]2OC(C)(C)O[C@@H]2C1 (stereo partly drawn),5.7,10.5
Cc1nc(N)nc(C)c1CC(=O)N1CCC2(CCOCC2)CC1,13.9,7.9
CSCCC(N)c1nc2ccccc2[nH]1 (stereo not drawn),15.7,10.3
CC(C)(C)c1ccc(S(=O)(=O)N2CCC(C(=O)NC3CCCC[C@H]3NC(=O)c3ccccc3)CC2)cc1 (stereo partly drawn),6.7,10.2
CNc1ncccc1C(=O)N(Cc1sccc1C)C1CCCC1,-2.8,-6.5
CC(C)(C)n1ncc2c(=O)n(NC(=O)c3cc4ccccc4o3)cnc21,10.1,4.4
Cc1ccc(CN(C)C(=O)C(C)(C)C)cc1,0.7,-0.5
O=c1c(-c2ccccc2)coc2c3c(ccc12)OCN(CCc1cccs1)C3,-0.1,-5.3
CCN(CC)S(=O)(=O)c1ccc2c(c1)nc(SCc1nccc(OC)c1OC)n2Cc1ccco1,5.2,1.9
NC(=O)c1ccccc1-c1cccc2ccccc12,-7.7,-9.1

# Next section.
Compound,NPYLR7 agonist,NPYLR7 agonist max-min
CC(C)c1cc(C(=O)NCCS(=O)(=O)N(C)C)on1,-2.1,-7.2
COc1ccc2c(=O)cc(C(=O)O)oc2c1CCl,-3.3,-10.0
COc1ccccc1-n1c(SCc2nc(C(=O)N3CCN(Cc4ccc5c(c4)OCO5)CC3)cs2)nnc1-c1cccnc1,12.4,14.5
CC(C)CNC(=O)c1cc(-c2ccccc2F)nc2cc(C(C)(C)C)nn12,1.3,6.1
COc1ccccc1CN(Cc1ccc2[nH]ccc2c1)C1CC1,6.3,2.3
CN(C(=O)CN1CCCC1c1ccc2c(c1)OCCCO2)c1ccc([N+](=O)[O-])cc1 (stereo not drawn),0.1,0.0
COc1ccccc1CN(Cc1ccc(F)cc1)CC(O)COCc1ccco1 (stereo not drawn),28.8,20.0
C=CCn1cc(CN2CCN(c3cc(C(C)C)nc(C)n3)CC2)c(C)n1,3.1,-0.3
Clc1ccc2c(c1)C(C1=NCCN1)c1ccccc1CS2 (stereo not drawn),-3.7,-5.1
O=C1OC(c2ccccc2Br)=N/C1=C\C(Cl)=C\c1ccccc1,3.1,-0.3
O=C(NCc1cccnc1)c1cnn2c1NC(c1ccc(F)cc1)CC2C(F)(F)F (stereo not drawn),14.9,17.0
O=C(NC1CCN(C/C=C/c2ccccc2)CC1)c1ccccc1,7.3,2.6
CCCC[C@@H](C=O)NC(=O)[C@H](CC(C)C)NC(=O)OCc1ccccc1,-17.7,-23.4
N#CC(C1=NCCCCC1)c1nnc2n1CCCCC2 (stereo not drawn),9.5,5.4
NC(=O)c1ccccc1NC(=O)C1CCN(c2ccc(-c3ccc(Cl)cc3)nn2)CC1,-8.5,-13.3
Cc1cc(N2CCC(C)CC2)n2nc(C)c(-c3ccccc3Cl)c2n1,-1.9,-4.6
CCn1c(=NC(=O)c2cc(C)no2)sc2cc3c(cc21)OCO3,9.5,12.8
Cc1nccc(N2CCOCC2c2ccccc2)n1 (stereo not drawn),-2.0,-4.2
COc1cccc(-c2nnc3ccc(OCCNC(=O)Nc4cccc(C)c4)nn23)c1,1.8,0.8
CC(C)C(NC(=O)C12CC3CC(CC(C3)C1)C2)C(=O)N/N=C\c1ccccc1C(F)(F)F (stereo not drawn),-1.2,-10.5
Cc1ccc(C)c(-n2[nH]c(-c3ccccc3F)c(-c3ccc(N)cc3)c2=O)c1,28.5,24.3
CC1CN(Cc2c(O)ccc3cc(Br)ccc23)CCO1 (stereo not drawn),5.5,4.3
O=C(CCN(CCc1ccccc1)c1nc(-c2cccs2)nc2ccccc12)N1CCOCC1,14.1,12.8
COc1ccc(-c2nc(CN(CCO)Cc3ccccc3)c(C)o2)c2ccccc12,-3.6,-14.7
O=C(C1=C(N2CCCCC2)c2ccccc2S(=O)(=O)N1)c1ccccc1,2.0,-0.3
O=C(Nc1ccc(N2CCOCC2)cc1)c1csc([C@@H]2C[C@H](O)[C@@H](CO)O2)n1,0.8,-0.3
Cc1ccc(N2CCN(N=C/C=C3/N(C)c4ccccc4C3(C)C)CC2)cc1,5.8,3.8

# Screens as filed in PubChem BioAssay.

# Some of the compounds tested. The share of hits here may be higher or lower than overall.
